motility: Vibrio cholerae motility inhibitors, OD read-out (AID 588778) | Vibrio cholerae motility, OD read-out; higher % means a stronger effect; test concentration not given here; primary cut-off and reference of the scale not given here; strong numbers were not always called active | inhibition, %, or IC50 in µg/mL where a hit was titrated | 10,000 tested, under 10 active; in the data active = confirmed in a dose series
motility viability: further read-out of motility, marked with its call; inhibition, %; measured here: bacterial viability at 10 ug/mL;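 higher means fewer living bacteria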
* = called active by the depositor.

Cc1cc(C)n2c(SCC(=O)Nc3c(Cl)cccc3Cl)nnc2n1 was read as motility 5% and motility viability -2.
Screening CCOc1ccc(C(=O)c2oc3ccccc3c2NC(=O)C2COc3ccccc3O2)cc1 (stereo unspecified) returned motility 8% and motility viability 4.
COC(=O)C1=CN(c2cccc(C(F)(F)F)c2)C=C(C(=O)OC)C1c1ccsc1 was read as motility -12% and motility viability -6.
`N#Cc1c(NC(=O)COc2ccc3oc4c(c3c2)CCCC4)sc2c1CCCC2` gave motility 2% and motility viability 0.
For COc1ccc(CN2CCN(Cc3c[nH]c4ccccc34)CC2)cc1Br the results were motility 15% and motility viability 9.
Screening O=C1Oc2ccc(Cl)cc2C1c1ccccc1 (stereo unspecified) returned motility -2% and motility viability -4.
For O=C(COc1ccccc1[N+](=O)[O-])Nc1ccc(Cl)cc1C(F)(F)F the results were motility -24% and motility viability -10.
Screening CCOc1ccc(Br)cc1C(=O)NCCc1c[nH]c2ccccc12 returned motility -4% and motility viability -1.
Screening CC(=O)C1=C(C)NC(SCC(=O)Nc2nccs2)=C(C#N)C1c1ccc(Cl)cc1 (stereo unspecified) returned motility 9% and motility viability 4.
For Cc1ccccc1-c1nc2ccccc2c(=O)n1C1CCS(=O)(=O)C1 (stereo unspecified) the results were motility -3% and motility viability -8.
Screening O=C(c1ccc(I)o1)N1CCN(c2ccc(F)cc2)CC1 returned motility 19% and motility viability 0.
For C=CCNC(=S)NC(=O)c1cc(I)ccc1Cl the results were motility 8% and motility viability 5.
`COc1ccccc1NC(=O)c1ccc(F)cc1C` gave motility 16% and motility viability 23.
For CC(=O)c1c(C)nc(-c2ccc(Cl)cc2)nc1N the results were motility -18% and motility viability -15.
For CS(=O)(=O)n1nc(-c2ccco2)nc1NCc1ccccc1 the results were motility 9% and motility viability 2.
O=S(=O)(Nc1cc(Br)c(O)c2ccccc12)c1ccc(F)cc1 was read as motility 86% and motility viability 30.
For OCC1OC(Oc2ccc3cc(Br)ccc3c2)C(O)C(O)C1O (stereo unspecified) the results were motility -15% and motility viability -9.
COc1cccc(C(=O)NN2CCCCC2)c1OC was read as motility 11% and motility viability -4.
`CCCCOc1cccc(C(=O)Nc2ccc(N(CC)CC)cc2C)c1` gave motility 12% and motility viability -1.
For Cc1cc2nn(-c3ccc(Cl)cc3)nc2cc1NC(=O)c1cc(-n2cnnc2)ccc1Cl the results were motility -3% and motility viability -2.
`O=C(NCc1ccc(F)cc1)c1ccccc1-c1ccccc1` gave motility -12% and motility viability -9.
Screening O=C(CC1C(=O)N(c2ccc(F)cc2)C(=S)N1Cc1ccccn1)Nc1ccc(F)cc1 (stereo unspecified) returned motility 8% and motility viability 3.
O=C(CSc1nc(-c2ccco2)cc(C(F)(F)F)n1)NN1CCCCC1 was read as motility 10% and motility viability -1.
Screening Cc1nc(Nc2ccccc2)sc1C returned motility 11% and motility viability 0.
`O=C(NNS(=O)(=O)c1ccc(F)cc1)Nc1ccc(Br)cc1` gave motility 8% and motility viability -1.
For COC(=O)c1ccc(CSc2nnc(-c3ccncc3)o2)o1 the results were motility 4% and motility viability 9.
`O=C(O)CC(C(=O)OCc1ccccc1)N1CCOCC1` (stereo unspecified) gave motility -5% and motility viability -7.
CC(=O)Nc1nnc(SCC(=O)n2c3c(c4ccccc42)CCCC3)s1 was read as motility -13% and motility viability -8.
Cc1ccc(N/C(=N/C(N)=S)c2ccccc2)cc1 was read as motility -9% and motility viability -11.
For CC12CN(C(=O)c3ccco3)CC(C)(CN(C(=O)c3ccco3)C1)C2=O the results were motility 11% and motility viability 19.
For O=C(NCc1cccnc1)Nc1ccc(Br)cc1Cl the results were motility 10% and motility viability 3.
For O=C(Nc1ccc(S(=O)(=O)NCC2CCCO2)cc1)c1ccco1 (stereo unspecified) the results were motility -4% and motility viability -6.
For O=Cc1cccn1Cc1ccc(Cl)cc1Cl the results were motility 6% and motility viability 4.
Screening O=C(NNC(=O)C1CC1c1ccccc1)C1CC1c1ccccc1 (stereo unspecified) returned motility -15% and motility viability -11.
Screening O=C(Nc1cc(C(F)(F)F)ccc1Cl)c1ccc(COc2ccccc2Cl)o1 returned motility -10% and motility viability -10.
For COc1ccc(-c2cn3c4ccccc4nc3n2CCNC2CCCCC2)cc1 the results were motility 34% and motility viability 8.
Cc1ccc(Sc2ccc(/C=C/[N+](=O)[O-])o2)cc1 was read as motility 59% and motility viability 30.
`O=C(CSc1nc(-c2ccccc2)cs1)NCc1ccc2c(c1)OCO2` gave motility 11% and motility viability 3.
For CN1CCN(NC(=O)Cc2ccccc2Cl)CC1 the results were motility -8% and motility viability -3.
Cc1ccc(C(=O)n2c(C)nc3ccccc32)o1 was read as motility 1% and motility viability -2.
COC(=O)C1=C(C)Nc2c(c(=O)n(C)c(=O)n2C)C1c1cccc(Br)c1 (stereo unspecified) was read as motility 14% and motility viability 6.
Screening CN1C(C(=O)c2ccccc2)=C(NC(=O)c2ccc(F)cc2)c2ccccc2S1(=O)=O returned motility -2% and motility viability -6.
`COc1ccc(/C=C(\NC(=O)c2ccccc2)C(=O)NN)cc1OC` gave motility -8% and motility viability 27.
For CN(CC(=O)NC1CC(C)(C)NC(C)(C)C1)S(=O)(=O)c1cc(Cl)ccc1Cl the results were motility -1% and motility viability 0.
CN(C)S(=O)(=O)N1CCN(CC(=O)Nc2ccc(F)cc2)CC1 was read as motility -4% and motility viability -4.
CCOC(=O)C1=C(C)NC(=S)NC1c1ccccc1 (stereo unspecified) was read as motility 30% and motility viability 9.
For c1ccc2[nH]c(CCSCCc3nc4ccccc4[nH]3)nc2c1 the results were motility 15% and motility viability 3.
For O=C(NNC(=O)NC1CCCCC1)NC1CCCCC1 the results were motility -1% and motility viability -4.
O=C(CS(=O)(=O)c1ccccc1)N1CCCCCC1 was read as motility -2% and motility viability -3.
For CSc1ccc(C(=S)N2CCN(c3cccc(Cl)c3)CC2)cc1 the results were motility -26% and motility viability -12.
Screening CCOc1ccc(C(=O)NC(=S)Nc2ccc(-c3cn4ccccc4n3)cc2)cc1Cl returned motility 0% and motility viability -4.
For OC1(CNCc2ccccc2)C2CC3CC(C2)CC1C3 (stereo unspecified) the results were motility 42% and motility viability -2.
Screening CC1CCc2nc(NC(=S)Nc3ccccc3C(F)(F)F)sc2C1 (stereo unspecified) returned motility 9% and motility viability 17.
For CC(=O)c1cccc(NC(=O)CSCc2ccc([N+](=O)[O-])cc2)c1 the results were motility -6% and motility viability -3.
Screening COc1cc(CO)ccc1OCc1ccccc1C returned motility -11% and motility viability -3.
Cc1cc(C)nc(NC(=O)Cc2c(F)cccc2Cl)c1 was read as motility -8% and motility viability -5.
Screening CN(C)CCCCOc1ccc(C(C)(C)c2ccccc2)cc1 returned motility 20% and motility viability 2.
For O=C(CN1CCCCC1)Nc1cccc(I)c1 the results were motility 3% and motility viability 7.
Screening CN(C)C(=S)Nc1nc2ccccc2s1 returned motility 21% and motility viability 8.
For COC(=O)C(=O)N1CCN(CCN2C(=O)c3cccc4cccc(c34)C2=O)CC1 the results were motility 12% and motility viability 33.

The list goes on; the last three above are carried over.
For O=C(CN1CCCCC1)Nc1cccc(I)c1 the results were motility 3% and motility viability 7.
Screening CN(C)C(=S)Nc1nc2ccccc2s1 returned motility 21% and motility viability 8.
For COC(=O)C(=O)N1CCN(CCN2C(=O)c3cccc4cccc(c34)C2=O)CC1 the results were motility 12% and motility viability 33.
Screening COc1ccccc1NC(=O)/C=C/c1cc(Br)cs1 returned motility 7% and motility viability 13.
Screening CC(C)(C)c1ccc(S(=O)(=O)NCC(=O)N2CCN(C(=O)c3ccco3)CC2)cc1 returned motility 4% and motility viability 1.
`OC(CN1C2=NCCCN2c2ccccc21)c1ccc2c(c1)OCO2` (stereo unspecified) gave motility 4% and motility viability 1.
For O=S(=O)(c1cc(Cl)ccc1Cl)N1CCN(c2ncccn2)CC1 the results were motility -9% and motility viability -6.
Screening O=C(NC1CCCCC1)N1CCN(c2ccc([N+](=O)[O-])cc2)CC1 returned motility -5% and motility viability 22.
CCOC(=O)c1sc(NC(=O)COc2ccc(Cl)cc2Cl)cc1C was read as motility 19% and motility viability 14.
For COc1c(Cl)cc(CNc2ccc(Br)cc2)cc1Cl the results were motility 5% and motility viability 1.
Cc1ccc(S(=O)(=O)Nc2cc(Sc3nnnn3-c3ccccc3)c(O)c3ccccc23)cc1 was read as motility 16% and motility viability 1.
Screening Nc1nc(N)nc(-c2ccc(Oc3ccccc3)cc2)n1 returned motility -2% and motility viability -7.
`O=C(Cn1c(=O)oc2ccccc21)Nc1ccccc1F` gave motility 10% and motility viability 1.
O=C(CCc1ccccc1)NC(=S)Nc1nnc(CCN2CCCCC2)s1 was read as motility 14% and motility viability 0.
`Cn1nnc(NC(=S)NC(=O)c2ccco2)n1` gave motility -6% and motility viability -2.
Screening O=C(NNC(=O)c1cccs1)c1ccccc1 returned motility 4% and motility viability -7.
For CC(C)c1cc(C(=O)NNC(=S)NCc2ccc(F)cc2)c(O)c(C(C)C)c1 the results were motility 69% and motility viability 9.
Screening Cc1nc(SCc2csc(C)n2)c2c3c(sc2n1)CCCC3 returned motility 1% and motility viability -4.
O=C1CC(c2ccccc2)CC(O)=C1C=NCCN1CCNCC1 (stereo unspecified) was read as motility 4% and motility viability 6.
`CCOc1cc(CNc2nnn(C)n2)cc(Br)c1OCc1ccccc1Cl` gave motility -11% and motility viability -1.
COC(=O)c1cn(C(=O)c2cccs2)c2ccccc12 was read as motility 18% and motility viability 1.
Screening CCSc1ccccc1C(=O)Nc1nc2ccccc2c(=O)[nH]1 returned motility 6% and motility viability 3.
For CCOC(=O)c1ccc(COC(=O)CNC(C)=O)c(Br)c1 the results were motility -11% and motility viability -9.

Sorted by formula weight (highest first): five of the compounds above
For COc1ccc(CN2CCN(Cc3c[nH]c4ccccc34)CC2)cc1Br the results were motility 15% and motility viability 9.
For OCC1OC(Oc2ccc3cc(Br)ccc3c2)C(O)C(O)C1O (stereo unspecified) the results were motility -15% and motility viability -9.
`CCCCOc1cccc(C(=O)Nc2ccc(N(CC)CC)cc2C)c1` gave motility 12% and motility viability -1.
`OC(CN1C2=NCCCN2c2ccccc21)c1ccc2c(c1)OCO2` (stereo unspecified) gave motility 4% and motility viability 1.
`COc1ccccc1NC(=O)c1ccc(F)cc1C` gave motility 16% and motility viability 23.

Returning to the listing with the 2 entries that preceded the break.
Screening CCSc1ccccc1C(=O)Nc1nc2ccccc2c(=O)[nH]1 returned motility 6% and motility viability 3.
For CCOC(=O)c1ccc(COC(=O)CNC(C)=O)c(Br)c1 the results were motility -11% and motility viability -9.
`O=C(NC1(C(=O)O)CCCCC1)c1cccs1` gave motility -5% and motility viability -4.
For CC(C)(O)c1c(C(F)(F)F)nnn1-c1ccccc1 the results were motility 12% and motility viability 0.
c1ccc(CNc2ncnc3scc(C4COc5ccccc5O4)c23)cc1 (stereo unspecified) was read as motility -9% and motility viability -2.
Screening CN(C)c1ccc(/C=C(/C#N)c2ccc(C#N)cc2)cc1Br returned motility 6% and motility viability -3.
For CCOC(=O)c1ccc(COC(=O)c2ccc3ccccc3c2O)cc1 the results were motility 0% and motility viability -1.
Screening COC(=O)c1ccc(-n2nnnc2SCc2ccccc2Br)cc1 returned motility -8% and motility viability -3.
COc1ccc(CSc2nncn2N)cc1Br was read as motility 15% and motility viability 33.
For Cc1nc(Nc2nc3ccccc3c(=O)[nH]2)nc2c(C)cccc12 the results were motility 4% and motility viability -4.
For CC(=O)Nc1ccc(S(=O)(=O)Nc2ccc(OC(F)(F)F)cc2)cc1 the results were motility 38% and motility viability 6.
`O=C(CSc1nnnn1-c1ccccc1)Nc1cc(C(F)(F)F)ccc1N1CCOCC1` gave motility 10% and motility viability 32.

Entries shown so far with a thiophene ring, fused or not:
COC(=O)C1=CN(c2cccc(C(F)(F)F)c2)C=C(C(=O)OC)C1c1ccsc1 was read as motility -12% and motility viability -6.
`N#Cc1c(NC(=O)COc2ccc3oc4c(c3c2)CCCC4)sc2c1CCCC2` gave motility 2% and motility viability 0.
Screening COc1ccccc1NC(=O)/C=C/c1cc(Br)cs1 returned motility 7% and motility viability 13.
CCOC(=O)c1sc(NC(=O)COc2ccc(Cl)cc2Cl)cc1C was read as motility 19% and motility viability 14.
Screening O=C(NNC(=O)c1cccs1)c1ccccc1 returned motility 4% and motility viability -7.
Screening Cc1nc(SCc2csc(C)n2)c2c3c(sc2n1)CCCC3 returned motility 1% and motility viability -4.
COC(=O)c1cn(C(=O)c2cccs2)c2ccccc12 was read as motility 18% and motility viability 1.
`O=C(NC1(C(=O)O)CCCCC1)c1cccs1` gave motility -5% and motility viability -4.
c1ccc(CNc2ncnc3scc(C4COc5ccccc5O4)c23)cc1 (stereo unspecified) was read as motility -9% and motility viability -2.

Not all compounds are listed; the hit share may differ from the screen's.
